# MT1-MMP promoter: inhibitors of MT1-MMP promoter transcription, cell-based, luciferase reporter, luminescence (AID 618); MT1-MMP promoter luciferase reporter cells, luminescence; calls from a first round at 10 µM; hits with a dose series show EC50 in µM; 87,000 compounds, 0.62% hits;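 active = over half of the reporter light lost at 10 µM or EC50 under 50 µM; inactive = the rest and hits that failed the dose series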;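 also: actives suppress MT1-MMP promoter-driven transcription so potencies describe inhibitors; HT1080 fibrosarcoma cells; overnight exposure; toxic or luciferase-blocking compounds were not removed from the actives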
# WNV NS2B-NS3 inh: inhibitors of WNV NS2B-NS3 protease, primary screen, biochemical, fluorogenic substrate. Genome polyprotein (West Nile virus), P06935. fluorogenic substrate Ex360/Em465; active compounds read low. z-score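 (tested at a level between 10 and 100 µM)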. 65,000 compounds, 0.18% hits;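 active = z-score at -3 or under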;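 also: score is relative to mean and spread of the compound wells of a plate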
# Target sequence (P06935 1371-1501 limits assumed): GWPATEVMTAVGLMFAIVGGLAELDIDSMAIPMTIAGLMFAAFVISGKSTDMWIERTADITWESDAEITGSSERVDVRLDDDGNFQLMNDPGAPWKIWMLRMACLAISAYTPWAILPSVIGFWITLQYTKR
# Target sequence (P06935 1502-1679 limits assumed): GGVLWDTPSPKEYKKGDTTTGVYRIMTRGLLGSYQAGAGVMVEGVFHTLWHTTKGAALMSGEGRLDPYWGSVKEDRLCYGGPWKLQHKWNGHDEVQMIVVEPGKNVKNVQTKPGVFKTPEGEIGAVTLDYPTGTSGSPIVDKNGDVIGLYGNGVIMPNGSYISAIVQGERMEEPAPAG
# Hsc70: Hsc70 inhibitors, probe displacement, primary screen, biochemical, fluorescence polarization (AID 568); displacement, % at 20 µM; hits with a dose series show IC50 in µM; Heat shock cognate 71 kDa protein (Homo sapiens); 83,000 tested, under 10 active; Hsc70 fluorescence polarization, probe displacement; higher % means a stronger effect; strong numbers were not always called active;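 active = displacement above 50% without optical interference and an IC50 on retest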;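 also: ATPase domain with a fluorescein-tagged ATP probe; 0% = vehicle and 100% = excess ADP; read after one hour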
# Active calls of the source: *; i = inactive; nt = not tested or not shown. A portion of the library. The share of hits here may be higher or lower than overall.
# The first 14 entries, ahead of the listing:
1. OC12CCCCC1C(c1ccccc1)NCC2 (configuration not stated)
2. O=P1(NCc2ccco2)COc2ccccc2OC1
3. Cc1ccc(-c2nc3ccccc3c(=O)n2-n2cccc2)cc1
4. COc1ccc(OCC(=O)N2CCN(C(C)C)CC2)cc1
5. CCN1CCN(C(=O)COc2ccc(S(=O)(=O)N(C)Cc3ccccc3)cc2)CC1
6. CN1CCN(c2ccc(N)c(N3CCN(C)CC3)c2)CC1
7. Cc1cc(OCC(=O)NC2CCS(=O)(=O)C2)c2c3c(c(=O)oc2c1)CCC3 (configuration not stated)
8. COc1ccccc1N1CCN(Cc2ccc(Br)s2)CC1
Screen / compound no. | 1 | 2 | 3 | 4 | 5 | 6 | 7 | 8
WNV NS2B-NS3 inh | -0.03 | -0.33 | -1.3 | nt | 0.85 | 0.1 | -0.3 | -1
Hsc70 | 4.6% | -0.7% | 2.6% | 1.3% | -0.1% | -5.1% | -2.4% | -2.8%
MT1-MMP promoter | i | i | i | i | i | i | i | i

9. Cc1ccc2ccccc2c1NC(=O)CNC1CCCCC1
10. COCCCn1c(N)c(C(=O)Nc2sc3c(c2C(=O)OC)CCCC3)c2nc3ccccc3nc21
11. O=C(NCC(c1cccnc1)N1CCN(c2ccc(F)cc2)CC1)Oc1ccccc1 (configuration not stated)
12. Cc1ccc(C(=O)C2CN3CCC2CC3)cc1 (configuration not stated)
13. CC1=NN(c2ccccc2)C(=O)C1/C=C1\C(=O)NC(=O)N(c2ccc(C)c(C)c2)C1=O (configuration not stated)
14. CCn1ncc(/C=C2/CC3C4CC=C5CC(O)CCC5(C)C4CCC3(C)C2=O)c1C (configuration not stated)
Screen / compound no. | 9 | 10 | 11 | 12 | 13 | 14
WNV NS2B-NS3 inh | nt | nt | 0.0095 | 0.02 | nt | nt
Hsc70 | 1.7% | -5.1% | 4.2% | -1.6% | -0.7% | 0.4%
MT1-MMP promoter | i | i | i | i | i | i

# All compounds of this part, from the first entry:
1. OC12CCCCC1C(c1ccccc1)NCC2 (configuration not stated)
2. O=P1(NCc2ccco2)COc2ccccc2OC1
3. Cc1ccc(-c2nc3ccccc3c(=O)n2-n2cccc2)cc1
4. COc1ccc(OCC(=O)N2CCN(C(C)C)CC2)cc1
5. CCN1CCN(C(=O)COc2ccc(S(=O)(=O)N(C)Cc3ccccc3)cc2)CC1
6. CN1CCN(c2ccc(N)c(N3CCN(C)CC3)c2)CC1
Screen / compound no. | 1 | 2 | 3 | 4 | 5 | 6
WNV NS2B-NS3 inh | -0.03 | -0.33 | -1.3 | nt | 0.85 | 0.1
Hsc70 | 4.6% | -0.7% | 2.6% | 1.3% | -0.1% | -5.1%
MT1-MMP promoter | i | i | i | i | i | i

7. Cc1cc(OCC(=O)NC2CCS(=O)(=O)C2)c2c3c(c(=O)oc2c1)CCC3 (configuration not stated)
8. COc1ccccc1N1CCN(Cc2ccc(Br)s2)CC1
9. Cc1ccc2ccccc2c1NC(=O)CNC1CCCCC1
10. COCCCn1c(N)c(C(=O)Nc2sc3c(c2C(=O)OC)CCCC3)c2nc3ccccc3nc21
11. O=C(NCC(c1cccnc1)N1CCN(c2ccc(F)cc2)CC1)Oc1ccccc1 (configuration not stated)
12. Cc1ccc(C(=O)C2CN3CCC2CC3)cc1 (configuration not stated)
Screen / compound no. | 7 | 8 | 9 | 10 | 11 | 12
WNV NS2B-NS3 inh | -0.3 | -1 | nt | nt | 0.0095 | 0.02
Hsc70 | -2.4% | -2.8% | 1.7% | -5.1% | 4.2% | -1.6%
MT1-MMP promoter | i | i | i | i | i | i

13. CC1=NN(c2ccccc2)C(=O)C1/C=C1\C(=O)NC(=O)N(c2ccc(C)c(C)c2)C1=O (configuration not stated)
14. CCn1ncc(/C=C2/CC3C4CC=C5CC(O)CCC5(C)C4CCC3(C)C2=O)c1C (configuration not stated)
15. O=c1[nH]c(O)c(C=NC2CCN(Cc3ccccc3)CC2)c(=O)[nH]1
16. COc1ccc(-n2c(SC)nc3ccccc3c2=O)cc1
17. OCCOCC#CCN1CCOCC1
18. CCOC(=O)N(CC)c1ccc(C(O)(C(=O)OC)C(F)(F)F)cc1 (configuration not stated)
Screen / compound no. | 13 | 14 | 15 | 16 | 17 | 18
WNV NS2B-NS3 inh | nt | nt | 0.74 | -0.39 | -0.32 | 0.26
Hsc70 | -0.7% | 0.4% | -0.2% | 4.7% | -2.4% | 3.2%
MT1-MMP promoter | i | i | i | i | i | i

# Arranged by heavy-atom count (descending): 3 of the compounds above
11. O=C(NCC(c1cccnc1)N1CCN(c2ccc(F)cc2)CC1)Oc1ccccc1 (configuration not stated)
9. Cc1ccc2ccccc2c1NC(=O)CNC1CCCCC1
12. Cc1ccc(C(=O)C2CN3CCC2CC3)cc1 (configuration not stated)
Screen / compound no. | 11 | 9 | 12
WNV NS2B-NS3 inh | 0.0095 | nt | 0.02
Hsc70 | 4.2% | 1.7% | -1.6%
MT1-MMP promoter | i | i | i

# New compounds follow
19. CC(NC(C)(C)C)C(=O)c1cccc(Cl)c1 (configuration not stated)
20. COCc1c(CN)cnc(C)c1N
21. COc1ccc(CCN(C)Cc2ccncc2)cc1OC
22. CC(=NCCN1CCCCC1)c1c(O)n(Cc2ccccc2)c(=O)[nH]c1=O
23. O=C1NCN(c2ccccc2)C12CCNCC2
24. CCCCC1(CCCC)C(=O)NC(=Nc2cccc(C)c2)NC1=O
Screen / compound no. | 19 | 20 | 21 | 22 | 23 | 24
WNV NS2B-NS3 inh | -1.5 | 0.09 | -1.1 | 0.14 | -0.49 | nt
Hsc70 | -4.8% | 1.0% | -2.0% | -8.9% | -2.9% | 6.6%
MT1-MMP promoter | i | i | i | i | i | i

25. CCN(CC)CCN=Cc1c(O)n(C2CCCCCC2)c(=O)[nH]c1=O
26. CN(CCCCC(=O)/C=N/O)Cc1ccccc1 (tested in a mixture with another compound)
27. O=C1C2CCCN2C(c2cccnc2)N1c1ccc(Cl)cc1 (configuration not stated)
28. CC1CCC(C(=O)NC(C(=O)N2CCC3(CC2)OCCO3)C(C)C)CC1 (configuration not stated)
29. C=Cn1ccnc1P(=S)(c1cc(N(CC)CC)ns1)c1nccn1C=C
30. C[C@]12CC[C@@H](O)C[C@@H]1CC[C@@H]1[C@@H]2CC[C@]2(C)[C@@H](O)CC[C@@H]12
Screen / compound no. | 25 | 26 | 27 | 28 | 29 | 30
WNV NS2B-NS3 inh | 0.37 | nt | -1.1 | 0.01 | -0.52 | nt
Hsc70 | -4.2% | -1.4% | -2.2% | 1.5% | -4.4% | 3.9%
MT1-MMP promoter | i | i | i | i | i | i

31. O=C(c1sc2ccccc2c1Cl)N1CCC2(CC1)OCCO2
32. CCCCc1nc2ccccc2c(=O)n1-c1ccccc1O
33. COc1ccccc1N1CCN(Cc2ccc(Cl)cc2Cl)CC1
34. COc1cc(OC)c(OC)cc1CNC(C)C(O)c1ccccc1 (configuration not stated)
35. Cc1ccc(OCC(=O)NCCN2CCN(C(=O)COc3ccc(C)cc3)CC2)cc1
36. CC(=O)O[C@]1(c2ccccc2)CCN(C)[C@H]2CCCC[C@@H]21
Screen / compound no. | 31 | 32 | 33 | 34 | 35 | 36
WNV NS2B-NS3 inh | 0.77 | -0.28 | nt | -0.36 | 0.57 | nt
Hsc70 | -3.5% | -1.0% | -4.2% | 0.8% | 3.7% | 2.0%
MT1-MMP promoter | i | i | i | i | i | i

37. CCCCn1c(O)c(C(C)=NCCN2CCOCC2)c(=O)[nH]c1=O
38. c1ccc2c(CCNCc3ccc4c(c3)OCO4)c[nH]c2c1
39. CC12CCCCC1N(O)CN2O (configuration not stated)
40. CCOc1ccc(Cc2c(O)[nH]c(=O)[nH]c2=O)cc1
41. O=C(c1ccc2c(c1)OCO2)N1CCC2(CC1)OCCO2
42. Fc1ccccc1N1CCN(Cc2ccc3c(c2)OCO3)CC1
Screen / compound no. | 37 | 38 | 39 | 40 | 41 | 42
WNV NS2B-NS3 inh | nt | -0.95 | -0.21 | 0.29 | 1.7 | -0.36
Hsc70 | 1.8% | 1.7% | 1.0% | -7.4% | 9.3% | 8.5%
MT1-MMP promoter | i | i | i | i | i | i

43. COc1ccc2c(c1)c(C(=O)CN1CCC3(CC1)OCCO3)c(C)n2Cc1ccccc1
44. CCOC(=O)N1CCN(C(C)C(=O)c2c[nH]c3ccccc23)CC1 (configuration not stated)
45. CC1(C)C(c2ccccc2)=NC(c2cccnc2)=[N+]1[O-]
46. O=c1cccc2n1CC1CC2CN(C(c2ccccc2)c2sc3ncnn3c2O)C1 (configuration not stated)
47. CC(C)CCNC(=O)c1c(N)n(Cc2ccc3c(c2)OCO3)c2nc3ccccc3nc12
48. Cc1cc(NC(=O)COC(=O)c2c(C)nn(Cc3ccccc3Cl)c2C)no1
Screen / compound no. | 43 | 44 | 45 | 46 | 47 | 48
WNV NS2B-NS3 inh | nt | -0.04 | -0.71 | 0.87 | nt | nt
Hsc70 | 8.7% | -8.5% | -3.1% | -1.8% | -5.2% | 2.5%
MT1-MMP promoter | i | i | i | i | i | i

49. COc1cc2c(cc1OC)C(C(=O)N1CCC3(CC1)OCCO3)C(c1ccccc1F)N(C)C2=O (configuration not stated)
50. CCc1nnc(NC(=O)CCc2nc(C3=CCN(C)CC3)no2)s1
51. CC(=O)C1C2c3ccccc3OC1(C)N=c1s/c(=C/c3cn(C)nc3C)c(=O)n12 (configuration not stated)
52. Cc1nc2ccc(Cl)cn2c1P(=S)(N1CCOCC1)N1CCOCC1
53. CC12CN3CC(C)(CN(C1)C31CCOCC1)C2=O
54. CCOc1ccccc1-n1c(O)c(C=Nc2c(C)n(C)n(-c3ccccc3)c2=O)c(=O)[nH]c1=O
Screen / compound no. | 49 | 50 | 51 | 52 | 53 | 54
WNV NS2B-NS3 inh | nt | 0.11 | -1.1 | -0.64 | nt | -0.32
Hsc70 | 1.9% | -7.2% | 5.3% | 7.7% | -0.6% | 2.3%
MT1-MMP promoter | i | i | i | i | i | i
